# Bioassay records from PubChem.
# NPSR antagonist: blocks cAMP signaling of the human neuropeptide S receptor; Q6W5P4; CHO-NPSR cells, cAMP TR-FRET, antagonist mode; Potency, µM (top dose mostly 38.3 µM), for inactives: at the top dose activity change, negative = inhibition, most hits filed as inhibitors; actives 1% (n = 220,000); note: % is set by controls: 0 for no effect and ±100 for the full control effect; nearly all actives have a fitted effect of over 50% in size; many of its hits are not listed in these tables
# Target sequence (Q6W5P4 whole entry, looked up): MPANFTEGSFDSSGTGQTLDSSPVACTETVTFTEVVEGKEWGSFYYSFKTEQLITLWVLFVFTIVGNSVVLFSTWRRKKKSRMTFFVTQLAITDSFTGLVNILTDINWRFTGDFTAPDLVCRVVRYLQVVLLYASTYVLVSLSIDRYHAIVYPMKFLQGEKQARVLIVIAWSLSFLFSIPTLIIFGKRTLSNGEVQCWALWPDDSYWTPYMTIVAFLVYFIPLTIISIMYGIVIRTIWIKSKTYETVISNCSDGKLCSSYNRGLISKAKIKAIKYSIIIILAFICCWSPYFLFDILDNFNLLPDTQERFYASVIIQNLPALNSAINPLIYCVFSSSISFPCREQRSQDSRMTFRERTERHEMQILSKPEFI
# RGS12 GoLoco inh: RGS12 GoLoco-Gai1 interaction inhibition | P63096 | Gai1:RGS12 GoLoco peptide FP, rhodamine, 10 min | Potency, µM (series often up to 61.6 µM), without a hit: at the highest dose activity, negative = inhibition, hits mostly inhibitors | actives 0.44% (n = 230,000); active = well fitted inhibition curve with a large enough effect, not every such curve was filed as active; inactive = no such curve, though single readings can be large or run the other way; note: % is set by controls: 0 for no effect and ±100 for the full control effect; nearly all actives have a fitted effect of over 30% in size; many of its hits are not listed in these tables
# Target sequence (P63096 whole entry, looked up): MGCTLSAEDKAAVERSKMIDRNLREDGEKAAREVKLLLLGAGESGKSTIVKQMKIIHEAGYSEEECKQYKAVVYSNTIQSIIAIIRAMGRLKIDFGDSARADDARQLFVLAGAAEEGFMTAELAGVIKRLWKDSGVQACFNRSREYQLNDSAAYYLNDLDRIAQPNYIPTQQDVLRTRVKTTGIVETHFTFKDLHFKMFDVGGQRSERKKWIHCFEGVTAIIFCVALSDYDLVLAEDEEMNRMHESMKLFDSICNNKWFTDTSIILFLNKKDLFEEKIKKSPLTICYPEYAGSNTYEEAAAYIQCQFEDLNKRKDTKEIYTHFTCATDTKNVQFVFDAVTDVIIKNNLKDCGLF
# SMN2 splice up: increases expression of the SMN2 splice variant; HEK293 SMN2-luciferase splicing reporter, luminescence, 30-36 h; Potency, µM (highest dose often 46.1 µM), for inactives: top-dose activity change, positive = activation, actives largely listed as activators; actives 2.8% (n = 210,000); note: % of control where 0% means no effect; nearly all actives have a fitted effect of over 55% in size
#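 HEK293 cells carry an SMN2 […]–luciferase reporter in which exon 7 inclusion puts luciferase in frame. Cells were plated 10-12 h before compound addition, then incubated 30-36 h at 37C. ONE-Glo luminescence was read; sodium butyrate at 4.5 mM final served as control.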
# RECQ1 helicase: RECQ1 (human) helicase inhibition. RECQ1 DNA unwinding, red fluorescence kinetic read. actives 0.54% (n = 240,000). Potency, µM (doses to about 57.3 µM), for inactives: at the highest dose activity, negative = inhibition, most hits filed as inhibitors;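 note: plate controls were vehicle for no effect and no enzyme for full effect; nearly all actives have a fitted effect of over 30% in size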
#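 RECQ1T1 50 nM; forked duplex (20 bp + 30-nt ss tails) 200 nM, ATP 2 mM final; pH 8.0, 2 mM MgCl2, 2.5 ug/ml poly(dI-dC); 15 min compound preincubation; discontinuous kinetic read over 2 h at RT.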
# Epigenetic reg: regulators of epigenetic silencing causing reporter derepression in mouse cells | Potency, µM (doses to about 53.9 µM), for inactives: at the top dose GFP activation, hits mostly activators | murine LDR cells, GFP reporter derepression, 30 h | actives 0.2% (n = 280,000); note: % of control where 0% means no effect; nearly all actives have a fitted effect of over 60% in size
#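 Murine LDR cells bearing a silenced CMV-driven GFP reporter were exposed to compound for 30 h at 37 C. After PBS washes, GFP-positive cells (20-120 um objects) counted by laser-scanning microplate cytometry.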
# IMPase Li inh: cell-permeable IMPase inhibitors with lithium potentiation | Potency, µM (highest dose often 59.4 µM), without a hit: at the highest dose activity, negative = IMPase inhibition, hits mostly inhibitors | CHO-M1 cells, IP1 TR-FRET (IP-One), carbachol + lithium | actives 0.35% (n = 210,000);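 note: IP1 builds up when IMPase is blocked and the TR-FRET signal falls; plate controls were basal vehicle for no effect and high inhibitor control for full effect; nearly all actives have a fitted effect of over 50% in size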
#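 Readout is a homogeneous TR-FRET IP1 immunoassay (Ex 320, Em 665 and 620), where raised cytosolic IP1 lowers signal. Cells were CHO-M1 treated 30 min at 37C with test compounds plus a little lithium; AC50 values came from Hill-equation fitting.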
# KinaseGlo FLuc: blocks Kinase-Glo luciferase, a counter-screen artifact; Q27757; Kinase-Glo luciferase, ATP luminescence, 8 min; Potency, µM (doses to about 38.3 µM), for inactives: at the top dose activity change, negative = inhibition, hits mostly inhibitors; actives 0.28% (n = 200,000); AID 1379; note: % is set by controls: 0 for no effect and ±100 for the full control effect; nearly all actives have a fitted effect of over 60% in size
#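 Luminescence was the read-out, taken after 8-minute incubation at ambient temperature. Luciferase turned over luciferin with 10 uM ATP in imidazole pH 7.2 buffer containing KCl, MgCl2, Tween 20 and BSA.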
# * marks the source's active call; other numbers are inactive results; i = inactive; ? = inconclusive; nt = no result given; [ ] = remark or other dose. Unless noted, calls come from the whole dose curve; as a rule, active = well fitted curve in the direction sought with a large enough effect; inconclusive = small, poorly fitted or top-dose-only effect, or another doubt; inactive = no such curve, though single readings can be large; an effect the other way counts as inactive or inconclusive. Potency is the fitted concentration of half-maximal effect. Some of the compounds tested; count on the stated rates, not on these rows.
# Codes – A = NPSR antagonist; B = RGS12 GoLoco inh; C = SMN2 splice up; D = RECQ1 helicase; E = Epigenetic reg; F = IMPase Li inh; G = KinaseGlo FLuc
(1) O=C(c1ccccn1)N1N=C2/C(=C/c3ccccc3)CCCC2C1c1ccccc1 (stereo unspecified)
  A: -34% | B: 3% | C: -24% | D: -1% | E: -5.5% | F: 2% | G: -1%

(2) Oc1cc(OCc2ccccc2)ccc1-c1[nH]ncc1-c1ccccc1
  A: ? | B: 0% | C: nt | D: -7% | E: 18% | F: nt | G: nt

(3) O=C(O)CC/C(=N/Nc1ncc(C(F)(F)F)cc1Cl)C(=O)O
  A: 18% | B: 14% | C: -3% | D: 12% | E: -3.2% | F: -2% | G: 2%

(4) O=C(CNc1ccc2ccccc2c1)N/N=C/c1ccc(C(=O)O)cc1
  A: 2% | B: -2% | C: 12% | D: 19% | E: -5.1% | F: 1% | G: 1%

(5) CN(CCOc1ccccc1)CC(=O)Nc1ccc(Cl)cc1[N+](=O)[O-]
  A: -5% | B: 0% | C: 2% | D: -19% | E: -9.5% | F: 8% | G: 2%

(6) O=C(O)CSc1c(O)c2ccccc2[nH]c1=O
  A: 2% | B: 15% | C: -3% | D: i | E: -1.9%[10.1 µM] | F: 0% | G: 2%

(7) OC(COc1cccc2ccccc12)CN1CCN(c2ccccc2Cl)CC1 (stereo unspecified)
  A: ? | B: -1% | C: nt | D: i | E: 1.4% | F: nt | G: nt

(8) Cc1cccc(NC(=O)C2CC(=O)n3cnnc3S2)c1 (stereo unspecified)
  A: -3%[46.1 µM] | B: 12% | C: ? | D: -6% | E: 0.0% | F: 17%[38.3 µM] | G: -3%

(9) Cc1ccnc(NC(=O)c2c(O)c3ccccc3n(C)c2=O)c1
  A: -6%[46.1 µM] | B: 6% | C: 13µM* | D: i | E: 0.0% | F: -24%[38.3 µM] | G: -3%

(10) CN(C)c1nc(N)c2ncc(=S)[nH]c2n1
  A: -9% | B: 5% | C: 4% | D: i | E: -0.4% | F: -9% | G: -3%

# Pulled by compound from above (7):
# Codes – A = NPSR antagonist; B = RGS12 GoLoco inh; C = SMN2 splice up; D = RECQ1 helicase; E = Epigenetic reg; F = IMPase Li inh; G = KinaseGlo FLuc
(7) OC(COc1cccc2ccccc12)CN1CCN(c2ccccc2Cl)CC1 (stereo unspecified)
  A: ? | B: -1% | C: nt | D: i | E: 1.4% | F: nt | G: nt

(2) Oc1cc(OCc2ccccc2)ccc1-c1[nH]ncc1-c1ccccc1
  A: ? | B: 0% | C: nt | D: -7% | E: 18% | F: nt | G: nt

(6) O=C(O)CSc1c(O)c2ccccc2[nH]c1=O
  A: 2% | B: 15% | C: -3% | D: i | E: -1.9%[10.1 µM] | F: 0% | G: 2%

(3) O=C(O)CC/C(=N/Nc1ncc(C(F)(F)F)cc1Cl)C(=O)O
  A: 18% | B: 14% | C: -3% | D: 12% | E: -3.2% | F: -2% | G: 2%

(8) Cc1cccc(NC(=O)C2CC(=O)n3cnnc3S2)c1 (stereo unspecified)
  A: -3%[46.1 µM] | B: 12% | C: ? | D: -6% | E: 0.0% | F: 17%[38.3 µM] | G: -3%

(5) CN(CCOc1ccccc1)CC(=O)Nc1ccc(Cl)cc1[N+](=O)[O-]
  A: -5% | B: 0% | C: 2% | D: -19% | E: -9.5% | F: 8% | G: 2%

(9) Cc1ccnc(NC(=O)c2c(O)c3ccccc3n(C)c2=O)c1
  A: -6%[46.1 µM] | B: 6% | C: 13µM* | D: i | E: 0.0% | F: -24%[38.3 µM] | G: -3%

# Next section.
# Codes – A = NPSR antagonist; B = RGS12 GoLoco inh; C = SMN2 splice up; D = RECQ1 helicase; E = Epigenetic reg; F = IMPase Li inh; G = KinaseGlo FLuc
(11) CCCCOc1ncnc2c1[nH]c1ccc(C)cc12
  A: -1% | B: 9% | C: nt | D: 13% | E: -0.8% | F: nt | G: nt

(12) CN1CCN(C(=O)Nc2ccccc2)CC1
  A: 19% | B: 0% | C: -9% | D: i | E: 1.6% | F: 2% | G: 3%

(13) O=C(NCCNCc1ccc(F)cc1)c1ccco1
  A: 3%[46.1 µM] | B: -5% | C: 5% | D: -6% | E: -2.2% | F: 26%[38.3 µM] | G: -3%

(14) CC(=O)N1CCN(CC(=O)Nc2ccc(C)c(S(=O)(=O)N(C)C)c2)CC1
  A: 19% | B: -3% | C: -2% | D: -5% | E: -1.5% | F: 1% | G: 1%

(15) Cc1nc2ccc(NC(=O)c3ccc(S(=O)(=O)N(C)c4ccccc4)cc3)cc2s1
  A: -26% | B: 6% | C: -49%[inhibitor] | D: -8% | E: -1.3% | F: 9% | G: -5%

(16) COc1cc(C(=O)NC(=S)NNC(=O)[C@H]2C[C@@H]2c2ccccc2)cc(OC)c1OC
  A: 4% | B: 12% | C: nt | D: -16% | E: 0.0% | F: nt | G: nt

(17) O=C(CCBr)N1CCN(C(=O)CCBr)CC1
  A: nt | B: -10% | C: -20% | D: -11% | E: 1.3% | F: -5% | G: -5%

(18) Brc1ccccc1OCCCCCN1CCOCC1
  A: -7% | B: -2% | C: 6% | D: 1% | E: -0.1% | F: 14% | G: 1%

(19) O=C(COc1ccc(-c2ccccc2)cc1)N1CCN(S(=O)(=O)Cc2ccccc2)CC1
  A: -11%[46.1 µM] | B: -2% | C: -31%[inhibitor] | D: 3% | E: 1.0% | F: 6%[38.3 µM] | G: -2%

(20) O=C(CSc1nnc(-c2ccccc2)n1Cc1ccccc1)NNC(=O)c1ccccc1O
  A: 7% | B: 4% | C: -13% | D: -15% | E: -4.0% | F: -4% | G: 0%

(21) COc1ccc(S(=O)(=O)N2CCCCC2)cc1NC(=S)Nc1ccccc1
  A: -7% | B: 7% | C: -3%[1.84 µM] | D: -2% | E: 0.9% | F: 3% | G: 2%

(22) CCc1ccc(NS(=O)(=O)c2ccc3[nH]cc(C(=O)NCC4CCCO4)c(=O)c3c2)cc1 (stereo unspecified)
  A: -28%[46.1 µM] | B: 19% | C: 22% | D: -9% | E: -2.6% | F: -19%[38.3 µM] | G: -2%

(23) COCCOC(=O)c1c(C)nc(SCC(=O)Nc2ccc(OC)cc2)c(C#N)c1-c1ccco1
  A: -15%[46.1 µM] | B: 8% | C: -9% | D: -6% | E: -7.5% | F: 15%[38.3 µM] | G: -1%

(24) C=CCOc1ccc(CN(C)CC(=O)Nc2ccccc2[N+](=O)[O-])cc1
  A: -40% | B: 4% | C: -3% | D: -11% | E: -0.2% | F: 14% | G: 0%

(25) Cc1ccc(C)c(S(=O)(=O)N2CCN(CC(=O)N3CCc4ccccc4C3)CC2)c1
  A: -6%[46.1 µM] | B: -17% | C: -56%[inhibitor] | D: -7% | E: -1.0% | F: 15%[38.3 µM] | G: 0%

(26) CCCn1c(N2CCN(Cc3ccc(Cl)cc3)CC2)nc2ccccc21
  A: ? | B: 10% | C: nt | D: 3% | E: -1.0% | F: 21% | G: -3%

(27) O=C(/C=C/c1ccco1)NC(=S)NNC(=O)c1ccco1
  A: -3% | B: 2% | C: -2% | D: i | E: -1.0% | F: 11% | G: -1%

(28) Cn1c(=O)c2cn(-c3ccc4c(c3)OCCO4)cc2n(C)c1=O
  A: 0%[46.1 µM] | B: 5% | C: ? | D: 16% | E: -1.0% | F: 19%[38.3 µM] | G: -4%

(29) O=C(c1cccc(N2C(=O)C3CC=CCC3C2=O)c1)N1CCN(c2ccccc2)CC1 (stereo unspecified)
  A: -18%[46.1 µM] | B: 7% | C: -13% | D: -11% | E: 0.8% | F: 5%[38.3 µM] | G: -1%

(30) Cc1ccccc1OCc1n[nH]c(=S)n1-c1ccccc1
  A: -15% | B: 14% | C: -7% | D: 16% | E: -1.1% | F: 4% | G: 1%

(31) CC(C)(C)c1ccc(/C=C/C(=O)N2CCc3ccccc3C2)cc1
  A: -14%[46.1 µM] | B: 14% | C: -1% | D: 19% | E: -0.1% | F: 2%[38.3 µM] | G: -5%

# With a hit mark in SMN2 splice up, of those listed so far:
entry	Molecule	NPSR antagonist	RGS12 GoLoco inh	SMN2 splice up	RECQ1 helicase	Epigenetic reg	IMPase Li inh
9	Cc1ccnc(NC(=O)c2c(O)c3ccccc3n(C)c2=O)c1	-6%[46.1 µM]	6%	13µM*	i	0.0%	-24%[38.3 µM]
